Bioassay records: PubChem, National Center for Advancing Translational Sciences (NCATS)
MARV entry inh: Marburg virus entry inhibition. Marburg virus pseudotyped entry inhibition, cell reporter; control for the full effect not named in the record; about a third of the inactives were read at about 46 µM. 300,000 tested, 1.8% active. Potency, µM (top dose mostly 37.8 µM), for the others: at the top dose activity change, negative = inhibition, usual class: inhibitors; active = well fitted inhibition curve with a large enough effect; inconclusive = small, poorly fitted or top-dose-only effect, or effect the other way; inactive = flat fitted curve, though single readings scatter; tested in HEK293 cells; about a fifth of its hits are not listed in these tables; note: % is set by controls: 0 for no effect and ±100 for the full control effect; luciferase read-out
LASV entry inh: blocks Lassa virus binding to or entry into cells | Lassa virus pseudotype entry inhibition, cell reporter; control for the full effect not named in the record | Potency, µM (series often up to 37.9 µM), inactives show at the highest dose activity change, negative = inhibition, usual class: inhibitors | 300,000 tested, 1.2% active | AID 540256; active means well fitted inhibition curve with a large enough effect; inconclusive means small, poorly fitted or top-dose-only effect, or effect the other way; inactive means flat fitted curve, though single readings scatter; tested in HEK293 cells; note: % is set by controls: 0 for no effect and ±100 for the full control effect; nearly all actives have a fitted effect of over 50% in size; luciferase read-out
SARS PLpro yeast: blocks SARS-CoV papain-like protease in a yeast assay. S. cerevisiae expressing SARS-CoV PLpro, growth rescue; control for the full effect not named in the record. Potency, µM (series often up to 32.9 µM), inactives show top-dose activity, positive = growth rescue. 330,000 tested, 0.19% active. AID 485353; active means well fitted rising curve with a large enough effect; inconclusive means small, poorly fitted or top-dose-only effect; inactive means no such curve, though single readings can be large or run the other way; note: 0% is about no effect; nearly all actives have a fitted effect of over 55% in size; growth read by luminescence after 48 h
Cruzain Triton: blocks cruzain activity in presence of Triton detergent. Potency, µM, for inactives: max response, negative = inhibition, hits mostly inhibitors. AID 1478. 200,000 tested, 0.43% active. purified cruzain, Z-FR-AMC fluorescence, 0.01% Triton. P25779;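 note: plate controls were neutral wells for no effect and buffer without enzyme for full effect; nearly all actives have a fitted effect of over 40% in size; top concentration of the series not given in the record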
Target sequence (P25779 123-467 limits assumed): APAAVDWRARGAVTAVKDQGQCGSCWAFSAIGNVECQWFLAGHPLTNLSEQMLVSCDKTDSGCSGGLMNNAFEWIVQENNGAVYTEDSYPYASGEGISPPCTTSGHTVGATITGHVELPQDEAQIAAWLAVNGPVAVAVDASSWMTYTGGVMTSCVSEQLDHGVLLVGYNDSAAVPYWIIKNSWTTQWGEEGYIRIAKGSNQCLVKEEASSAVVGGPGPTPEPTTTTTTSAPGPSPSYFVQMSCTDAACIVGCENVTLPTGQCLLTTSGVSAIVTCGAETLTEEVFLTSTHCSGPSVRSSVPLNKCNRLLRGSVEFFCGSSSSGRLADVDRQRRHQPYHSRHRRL
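Detergent-containing arm of a paired screen for aggregation-based inhibition: 0.01% Triton X-100 present. Cruzain at 1.5 nM cleaved 2 uM Z-FR-AMC at pH 5.5 with 5 mM DTT; AMC fluorescence gain over 60 s measured activity.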
StopGo reporter: FMDV 2A StopGo reporter, luciferase signal; Potency, µM (series often up to 57.9 µM), inactives show at the highest dose signal change, negative = less light; 410,000 tested, 1.2% active; human cells with a luciferase reporter of 2A StopGo recoding; control for the full effect not named in the record; active = well fitted falling curve with a large enough effect; inconclusive = small, poorly fitted or top-dose-only effect; inactive = no such curve, though single readings can be large or run the other way; tested in HEK293T cells; note: % is set by controls: 0 for no effect and ±100 for the full control effect; nearly all actives have a fitted effect of over 45% in size; luciferase light after 4 h
RE007 growth inh: less growth of the S. pombe RE007 Vpr strain; S. pombe RE007 Vpr strain, BacTiter-Glo ATP luminescence, 24 h; control for the full effect not named in the record; Potency, µM (series often up to 92.2 µM), inactives show at the top dose activity change, negative = less growth; 360,000 tested, 0.21% active; active = well fitted falling curve with a large enough effect; inconclusive = small, poorly fitted or top-dose-only effect; inactive = no such curve, though single readings can be large or run the other way;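 note: % is set by controls: 0 for no effect and ±100 for the full control effect; nearly all actives have a fitted effect of over 50% in size; the assay follows cell death caused by Vpr and the record does not say whether a fall means rescue or toxicity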
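Fission yeast strain RE007, carrying one chromosomally integrated HIV-1 vpr copy, was seeded at OD 0.01 in PMG+AL medium with 23 nL pinned compound. After 24 h at 30 °C and 99% humidity, viability was read by BacTiter-Glo luminescence.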
Cruzain inh noDet: blocks cruzain activity in detergent-free assay; purified cruzain, Z-FR-AMC fluorescence, no detergent; Potency, µM, for the others: max response, negative = inhibition, actives largely listed as inhibitors; 200,000 tested, 2.3% active; AID 1476;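 note: plate controls were enzyme without inhibitor for no effect and buffer without enzyme for full effect; nearly all actives have a fitted effect of over 40% in size; top concentration of the series not given in the record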
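Detergent-free condition (0.00005% Triton X-100) in acetate buffer pH 5.5 with DTT. 1.5 nM enzyme and compound were pre-mixed 15 min, then 2 uM Z-FR-AMC substrate added; reaction progress from fluorescence change between first and third reads (60 s).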
NS1 inh: influenza NS1 inhibition; S. cerevisiae slowed by influenza A NS1, growth recovery by OD600; 270,000 tested, 0.4% active; Potency, µM (titrated, usually from 46.1 µM), without a hit: top-dose activity, positive = more growth; active means well fitted rising curve with a large enough effect; inconclusive means small, poorly fitted or top-dose-only effect; inactive means no such curve, though single readings can be large or run the other way; note: nearly all actives have a fitted effect of over 50% in size
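Growth recovery, yeast-based: influenza A NS1 expressed in S. cerevisiae causes slow growth, and suppressors are detected by OD600. The parent strain without NS1 is used as positive control.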
Numbers without * were called inactive; u = inconclusive; x = no result given; [ ] = another dose, or the depositor's remark. Unless noted, calls come from the whole dose curve; as a rule, active = well fitted curve in the direction sought with a large enough effect; inconclusive = small, poorly fitted or top-dose-only effect, or another doubt; inactive = no such curve, though single readings can be large; an effect the other way counts as inactive or inconclusive. Potency is the fitted concentration of half-maximal effect.

SMILES	MARV entry inh	LASV entry inh	SARS PLpro yeast	Cruzain Triton	StopGo reporter	RE007 growth inh	Cruzain inh noDet	NS1 inh
O=C1c2cccc3c(N4CCCCC4)ccc(c23)C(=O)N1CCO	u	u	-11%	-2.8%	6%	-24%	1%	-66%
COc1ccc(C2C(C(=O)N3CCN(C)CC3)c3cc(OC)c(OC)cc3C(=O)N2C)cc1 (stereo not given)	6%[46.1 µM]	5%	-1%	x	-6%	25%	x	x
Cc1cc(C)nc(NC(=S)NC(=O)c2ccccc2F)n1	0%[46.1 µM]	9%	x	x	19%	22%	x	x
Cc1c(NS(=O)(=O)c2cccc(C(=O)NCc3ccco3)c2)c(=O)n(-c2ccccc2)n1C	x	-20%	x	x	0%	12%	x	x
CCOc1ccc(C(=O)Nc2ccc3c(c2)CCCN3S(=O)(=O)c2ccc(C)cc2)cc1	x	u	x	0.0%	-24%	x	u	x
O=C(CC(=O)NCc1ccc(Cl)cc1)NCc1ccc(Cl)cc1	-2%[46.1 µM]	-4%[46.1 µM]	-1%	x	4%	7%	x	-8%
CS(=O)(=O)N1Cc2ccccc2CC1C(=O)OCC(=O)NCCc1ccc(S(N)(=O)=O)cc1 (stereo not given)	u	u	-6%	x	12%	-1%	x	x
COc1cccc(OC)c1C(=O)Nc1nc(-c2ccccc2)cs1	-10%[46.1 µM]	-7%[46.1 µM]	6%	x	-4%	-20%	x	13µM*
Cc1cccc(NC(=O)CSCC(=O)NCc2ccco2)c1	x	x	2%	x	-5%	0%	x	5%
COc1ccc(C(CC(=O)O)N2Cc3ccccc3C2=O)cc1 (stereo not given)	x	x	-1%	x	7%	10%	x	-1%
CC1(C(=O)O)CCC(C(=O)NCCc2ccccc2)C1(C)C (stereo not given)	3%	-1%	9%	-1.9%	-12%	-27%	-3%	6%
Cc1nn(CC2CC2)c(=O)n1-c1ccc(Oc2ccccc2)cc1	-21%[46.1 µM]	-16%	-1%	x	u	31%	x	-5%
CC(=O)Oc1cccc2c1C(=O)C1CC=CC(OC(C)=O)C1C2=O (stereo not given)	u	-14%	x	x	5%	u	x	x
CC1CC(C)CN(CC(=O)c2c[nH]c3ccccc23)C1 (stereo not given)	u	-1%[46.1 µM]	-1%	x	-13%	11%	x	-3%
O=C(Nc1ccc(Cl)cc1)Nc1nccs1	-17%	-14%	1%	-12%	20%	14%	-9%	-69%
CCCSCCCNC(=O)Cn1c(=O)c2cccn2c2ccccc21	x	x	-1%	x	-11%	1%	x	-3%
COc1cccc(C(=O)COc2ccc3ccc(=O)oc3c2)c1	x	x	-1%	x	15%	-6%	x	2%
CC1=C/C(=N\NC(=O)c2cccs2)CC(C)(C)C1	22%	4%	11%	x	4%	9%	x	x
Cn1c(=O)n(C)c2cc(N3CCOCC3)c(NC(=O)c3cccc(Cl)c3)cc21	x	x	-1%	x	-22%	6%	x	-9%
CCn1c2ccccc2c2nnc(SCC(=O)NCc3cccs3)nc21	20%	3%	-3%	-2.7%	-3%	5%	-7%	-1%
Cc1nc2c(-c3ccccc3)c(C)nn2c(C)c1CCC(=O)NCc1ccco1	3%	x	2%	-0.6%	-26%	-9%	u	-6%
Cc1nonc1NC(=O)CSc1cn[nH]n1	1%[46.1 µM]	3%	3%	x	0%	1%	x	4%
CCOC(=O)c1cc2sccc2n1CC(=O)N1CCCc2ccccc21	-24%	u	-8%	-0.5%	x	3%	4%	-5%
CCn1c(CNC(=O)c2ccc(OC)cc2)nnc1SCC(=O)c1ccccc1	7%	11%	-2%	-1.3%	-7%	-21%	-8%	-2%
COc1ccc(C2SCC(=O)Nc3c2c(=O)[nH]n3C2CCCCCC2)cc1OC (stereo not given)	0%	2%	0%	-1.0%	-12%	6%	0%	8%

Going on with the list.
SMILES	MARV entry inh	LASV entry inh	SARS PLpro yeast	Cruzain Triton	StopGo reporter	RE007 growth inh	Cruzain inh noDet	NS1 inh
COc1ccc(NS(=O)(=O)c2ccc(Br)cc2)cn1	-10%[46.1 µM]	-6%	-7%	x	12%	1%	x	-6%
CCCOc1ccc(C(=O)NNC(=S)NC(=O)c2ccco2)cc1	u	u	0%	x	u	-2%	x	-81%
Cc1cc(C(=O)COC(=O)c2ccc3c(c2)NC(=O)CS3)c(C)n1CC1CCCO1 (stereo not given)	u	8%	3%	-10%	28µM*	x	3%	21%
COC(=O)c1ccc(NN=Nc2ccc(C)cc2)cc1	-47%	u	3%	-6.0%	-9%	2%	-7%	-4%
CCN(CC)c1ccc(S(=O)(=O)N2CCOCC2)cc1NC(=O)CN1C(=O)NC2(CCC(C)CC2)C1=O (stereo not given)	3%	-9%	-2%	x	11%	-6%	x	x
Cc1c(Cl)cccc1NC(=O)CCS(=O)(=O)c1ccc(Br)s1	-16%[46.1 µM]	-12%[46.1 µM]	x	-2.6%	-10%	x	7%	x
CCN1CCN(CCC(=O)Nc2ccccc2C)CC1	u	0%	10%	x	7%	-8%	x	-2%
Cc1ccc(OCC(=O)NC(C)c2ccccc2)c([N+](=O)[O-])n1 (stereo not given)	-8%[46.1 µM]	-1%[46.1 µM]	-1%	x	-1%	-10%	x	-4%
CC(C)(C)C1CCC(C(=O)OCC(=O)N2CCOCC2)CC1 (stereo not given)	19%	u	6%	-1.0%	13%	-2%	u	-9%
CC(=O)Nc1ccc(NC(=O)c2ccccc2C)cc1	23%	u	-6%	1.4%	45%[activator]	7%	-3%	-2%
COc1ccc(OC)c(CCNC(=O)CS(=O)(=O)Cc2nc(-c3ccccc3Cl)oc2C)c1	x	x	-7%	x	-1%	-4%	x	-24%
CN(c1ccc(C(=O)N2CCOCC2)cc1)S(C)(=O)=O	-15%	22%	4%	-1.6%	x	6%	-4%	3%
CC1(C)S/C(=N/N=C/c2cccs2)NC1=O	u	19%	7%	3.4%	18%	-6%	-1%	1%
O=C(NCC1CCCO1)C1CCN(C2CCN(Cc3cccs3)CC2)CC1 (stereo not given)	x	x	0%	x	-8%	8%	x	9%
Cc1ccc(C)c(NC(=O)c2cc(-c3cc(C)c(C)cc3O)n[nH]2)c1	x	x	2%	x	46%[activator]	10%	x	1%
COc1cccc(N2C(=O)CC(N3CCN(CCN=CC4=C(O)CC(C)(C)CC4=O)CC3)C2=O)c1 (stereo not given)	-2%[46.1 µM]	-23%[46.1 µM]	-5%	x	-3%	-4%	x	-4%
O=S(=O)(NCCc1ccccc1)c1ccc(Cl)nc1	1%	u	-14%	0.5%	82%[activator]	19%	-11%	3%
O=C(CN1CCCC1)Nc1sc2c(c1C(=O)Nc1ccccc1)CCCC2	-9%	u	-9%	x	-21%	17%	x	10%
O=C(Nc1cccc(Cl)c1Cl)c1ccc(-c2ccccc2)cc1	-11%	u	7%	3.2%	14%	-15%	u	0%
O=C(COC(=O)c1ccccc1NC(=O)c1ccco1)Nc1ncc(Cl)cc1Cl	-11%	-13%	1%	-11%	-18%	10%	-10%	13%
COc1ccc(Nc2nc3cc(C)ccc3cc2C#N)cc1	-25%[46.1 µM]	2%[46.1 µM]	2%	x	-7%	-17%	x	-1%
O=C(c1cc2ccccc2cc1O)N1CCN(c2cccc(Cl)c2)CC1	16%	9%[46.1 µM]	1%	x	7%	5%	x	x
CS(=O)(=O)N(CC(=O)N1CCN(Cc2ccccc2)CC1)c1cccc([N+](=O)[O-])c1	21%[46.1 µM]	6%[46.1 µM]	5%	x	-8%	-15%	x	10%
C(=N\Nc1nncc2ccccc12)/c1ccccc1	12%	u	-3%	x	36%[activator]	-25%	x	-9%
CCOc1cccc(N2C(=O)CC(=O)NC2=O)c1	u	-3%	6%	-2.1%	-1%	-10%	-7%	u

Other results:
SMILES	MARV entry inh	LASV entry inh	SARS PLpro yeast	Cruzain Triton	StopGo reporter	RE007 growth inh	Cruzain inh noDet	NS1 inh
Cc1oc(-c2ccccc2Cl)nc1CSCC(=O)N1CCCC1	u	0.65µM*	-8%	-0.9%	24%	10%	2%	-18%
CC1CCN(C(=O)CCC(=O)N2CC(C)Oc3ccccc32)CC1 (stereo not given)	x	x	-3%	x	-13%	7%	x	-1%
Cc1ccc(C(=O)NCCCN2CCOCC2)cc1S(=O)(=O)N1CCCCC1	29%	7%	0%	x	-13%	-4%	x	x
O=C(NC1CCCCCCC1)C1c2ccccc2C(=O)N1Cc1ccco1 (stereo not given)	-11%	-21%	1%	0.8%	-9%	2%	-9%	4%
O=C1N=C(N2CCc3ccccc3C2)S/C1=C\c1cccc(O)c1	24%	21µM*	-11%	-11%	6%	4%	-5%	u
COc1ccc(CN(C(=O)CSc2nnc(-c3ccc(OC)c(OC)c3)o2)c2ccc(F)cc2)cc1	-18%	u	5%	-2.8%	-25%	-8%	u	1%
O=C(C1CCCC1)N1CCN(S(=O)(=O)c2ccc(F)c(F)c2F)CC1	11%[46.1 µM]	-6%[46.1 µM]	0%	x	-20%	0%	x	15%
CCOC(=O)C(C(=O)OCC)C(C#N)c1ccccc1 (stereo not given)	-1%[46.1 µM]	7%	18%	0.5%	-16%	-6%	2%	-2%
COc1ccccc1C(=O)Nc1ccc2c(c1)OCCO2	u	u	-15%	1.0%	-1%	-16%	-15%	-35%
COc1ccc(-c2csc3ncnc(Oc4ccc5c(C)cc(=O)oc5c4)c23)cc1	-1%	1%	18%	5.0%	-20%	-19%	4%	2%
COc1ccc(C2=NN(C(=O)CCC(=O)O)C(c3ccc(F)cc3)C2)cc1 (stereo not given)	-12%[46.1 µM]	21%[46.1 µM]	2%	x	-3%	-5%	x	20%
CCOC(=O)c1cc(NC(=O)c2ccccc2)c(=O)n2c1oc1ccc(Cl)cc12	u	4%[46.1 µM]	x	-2.7%	-13%	x	6%	x
Cc1cccc(OC(=O)c2cc(-c3ccc(Cl)cc3)on2)c1C	u	-5%[46.1 µM]	x	5.6%	-10%	x	3%	x
CC1(C(=O)N2CCN(C(=O)c3ccco3)CC2)CC1(Br)Br (stereo not given)	x	x	8%	x	-12%	-2%	x	28%
CC(=O)Nc1c(C(=O)Nc2ccc3c(c2)OCO3)oc2ccccc12	x	x	-3%	x	58%[activator]	-4%	x	-3%
